# Rango-impB inh = inhibitors of Rango-importin beta complex formation; Potency, µM (titrated, usually from 92.2 µM), for inactives: at the highest dose inhibition of complex formation; Q14974; Rango CFP/YFP FRET sensor + importin beta, 45 min; hit rate 0.031% among 340,000; active = rising FRET ratio curve, often small or poorly fitted; inconclusive = mostly compound fluorescence or quenching in the first reads; inactive = flat curves in all reads;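 note: potency is the fitted concentration of half-maximal effect; 0% = DMSO wells and 100% = buffer wells lacking importin beta; nearly all actives have a fitted effect of over 15% in size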
# Target sequence (Q14974 whole entry, looked up): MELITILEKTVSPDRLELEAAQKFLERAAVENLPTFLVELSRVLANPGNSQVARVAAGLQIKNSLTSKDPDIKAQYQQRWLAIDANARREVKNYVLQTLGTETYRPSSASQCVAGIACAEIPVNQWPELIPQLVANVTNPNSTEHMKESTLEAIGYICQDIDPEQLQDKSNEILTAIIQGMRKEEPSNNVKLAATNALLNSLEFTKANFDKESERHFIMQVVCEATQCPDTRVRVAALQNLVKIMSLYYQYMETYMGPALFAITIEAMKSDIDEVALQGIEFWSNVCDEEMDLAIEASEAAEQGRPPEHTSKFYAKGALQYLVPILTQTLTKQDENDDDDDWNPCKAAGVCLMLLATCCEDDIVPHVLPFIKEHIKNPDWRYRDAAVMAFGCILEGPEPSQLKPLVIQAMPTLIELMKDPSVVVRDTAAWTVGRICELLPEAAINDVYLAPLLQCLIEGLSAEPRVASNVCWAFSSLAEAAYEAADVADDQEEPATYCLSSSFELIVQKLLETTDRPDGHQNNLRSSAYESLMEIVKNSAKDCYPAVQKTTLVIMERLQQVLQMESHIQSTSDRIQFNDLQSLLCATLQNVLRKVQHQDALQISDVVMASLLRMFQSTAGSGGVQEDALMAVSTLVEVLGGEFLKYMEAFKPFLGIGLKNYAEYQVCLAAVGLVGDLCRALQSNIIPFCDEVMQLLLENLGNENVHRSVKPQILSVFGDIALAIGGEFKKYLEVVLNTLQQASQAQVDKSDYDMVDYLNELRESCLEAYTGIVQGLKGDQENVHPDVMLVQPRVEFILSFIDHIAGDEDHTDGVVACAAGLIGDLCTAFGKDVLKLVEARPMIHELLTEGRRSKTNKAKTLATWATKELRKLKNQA
#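 FRET biosensor Rango (snurportin 1 IBB between N-terminal EYFP and C-terminal Cerulean), 50 nM in PBS/1 mM DTT/0.02% Tween-20/0.1% BSA, preincubated 5 min RT with compound; 0.125 microM importin beta added, 45 min RT, CFP/YFP FRET ratio read.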
# miR-21 reporter = miR-21 reporter, rising signal. Potency, µM (titrated, usually from 38.3 µM), for inactives: at the top dose reporter change, positive = more light. 340,000 tested, under 10 active. HeLa miR-21 FLuc reporter, luciferase, 48 h. AID 2288; active = well fitted rising curve with a large enough effect; inconclusive = small, poorly fitted or top-dose-only effect; inactive = no such curve, though single readings can be large or run the other way;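 note: % of control where 0% means no effect; miR-21 action dims this reporter so a rising signal means less miR-21 action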
#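 Luminescence from a firefly luciferase reporter carrying a miR-21 binding site downstream, stably expressed under a CMV promoter in HeLa cells that make miR-21 endogenously, reports miRNA modulation after 48 h compound exposure up to approximately 40uM final.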
# Rango dissoc inh = prevents RanGTP from dissociating the Rango-importin beta complex; Biochemical FRET Rango-importin beta, RanGTP-induced dissociation; Potency, µM (top dose mostly 46.1 µM), without a hit: top-dose activity change, negative = inhibition; hit rate 0.071% among 340,000; active means falling FRET ratio curve, often poorly fitted, with flat reads before Ran was added; inconclusive means other falling curves, or compound fluorescence or quenching; inactive means flat or rising ratio curve;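 note: potency is the fitted concentration of half-maximal effect; % of control where 0% means no effect; nearly all actives have a fitted effect of over 45% in size; -100% = wells without RanGTP and RCC1; the record marks most hits as doubtful in a second field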
#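 Rango FRET biosensor (snurportin-1 IBB flanked by N-terminal EYFP and C-terminal CFP10) at 0.1 uM, with 0.25 uM importin beta in PBS, 1mM DTT, 0.02% Tween-20, 0.1% BSA. 0.6 uM Ran, 2mM GTP and 0.2 uM RCC1 were then added for 45 min at room temperature. Inhibition read as loss of FRET rise.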
# GLA inh pH 4.5 = blocks human alpha-galactosidase A at pH 4.5 | P06280 | 230,000 tested, under 10 active | activity change, negative = inhibition, % at 105 µM | purified enzyme, 4-MU-alpha-Gal fluorescence, pH 4.5; inconclusive = small, poorly fitted or top-dose-only inhibition, or a rising curve; inactive = flat fitted curve, though single readings scatter; no compound was filed as active;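 note: 0% = full activity with enzyme and -100% = basal without enzyme; dose as in the result columns while the protocol names 77 µM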
# An asterisk follows results filed as active; u = inconclusive; x = not tested or not shown.
# Second line of a record – Rango-impB inh | miR-21 reporter | Rango dissoc inh | GLA inh pH 4.5
1. O=C(/C=C/c1ccccc1[N+](=O)[O-])c1ccccc1Br
  u | 29% | -13% | 2
2. CCOc1ccc(-n2cc(C(=O)NC(C)C)c3cc(OC)c(OC)cc3c2=O)cc1
  -3.1% | -5% | -8% | 0
3. O=[N+]([O-])c1ccc(CN2CCN(c3ccc(F)cc3)CC2)o1
  3.5% | -2% | -9% | x
4. O=C1N(CN2C(=O)C3(OCCO3)c3ccccc32)c2ccccc2C12OCCO2
  -0.1% | -5% | -1% | 0
5. CCOc1ccc(OCCCC(=O)N(C)CC(=O)Nc2ccccc2Br)cc1
  1.5% | x | 1% | x
6. COc1ccc(NC(=O)C2C3CCC(O3)C2C(=O)O)c(C)c1 (stereo not drawn)
  0.0% | -7% | 6% | x
7. COc1ccccc1CNC(=O)c1ccc(C)s1
  0.3% | -13% | 0% | 2
8. Cc1ccc2c(c1)nnn2C1CCN(CC(=O)NCCc2ccccc2)CC1
  -2.5% | -7% | -7% | 2
9. COc1ccccc1NC(=O)C(C)N1C(=O)c2ccccc2C1=O (stereo not drawn)
  -0.2% | 0% | 21% | x
10. CC(=O)Nc1ccc(S(=O)(=O)N(C)CC(=O)N(C)Cc2sccc2C)cc1
  -0.8% | x | -3% | x
11. CC1(C)NC(=O)N(CC(O)CN2CCOCC2)C1=O (stereo not drawn)
  -1.1% | 0% | 8% | -7
12. O=S(=O)(c1ccc2c(c1)CCN2)N1CCCC1
  2.2% | x | 8% | x
13. CCOC(=O)C(C)Oc1cccc2c(=O)n(CC(=O)NCc3ccc4c(c3)OCO4)ccc12 (stereo not drawn)
  0.9% | 12% | 11% | 3
14. CN(Cc1ccccc1)C(=O)c1nc[nH]c1C(=O)N1CCN(C(=O)OC(C)(C)C)CC1
  0.0% | x | 1% | x
15. O=C(COC(=O)c1ccccc1Cc1ccccc1)Nc1ccc(SC(F)F)cc1
  2.4% | -60% | 5% | 1
16. Cn1c(=O)oc2ccccc2c1=O
  0.6% | x | -9% | x
17. O=C(NC1CCCC1)C1CCN(C(=O)c2ccc(Cl)cc2Cl)CC1
  4.6% | 1% | -7% | x
18. CCCCCC(=O)Nc1cc(S(=O)(=O)O)cc2cc(S(=O)(=O)O)cc(O)c12
  u | x | u | x
19. CC1CC(C)CN(C(=O)COc2ccc(-c3nnco3)cc2)C1 (stereo not drawn)
  -1.0% | -7% | 11% | 2
20. O=C(CN1CCCC1)Nc1ccccc1C(=O)c1ccccc1
  0.7% | -5% | -14% | 3
21. CCN(CC)CC(=O)N1c2ccccc2Sc2ccccc21
  6.1% | 0% | 1% | x
22. Cc1ccc(N(CCC#N)C(=O)COC(=O)C2CCN(S(=O)(=O)c3ccc4c(c3)OCCO4)CC2)cc1
  -4.2% | x | 18% | x
23. Cc1c(C(=O)Nc2ccc(S(=O)(=O)Nc3ncccn3)cc2)oc2ccccc12
  -0.3% | x | -6% | x
24. O=C(NNS(=O)(=O)c1ccc2ccccc2c1)NC1CCCCC1
  2.8% | 4% | 1% | -10
25. CCOC(=O)C1(Cc2cccc(OC)c2)CCN(Cc2ccc(C)s2)CC1
  -1.6% | 1% | -12% | -4
26. Clc1ccc(C[n+]2csc3ccccc32)cc1
  4.0% | -18% | -4% | 6
27. COc1ccc(C2=NS(=O)(=O)N(C)C(C(=O)Nc3ccc(C(C)=O)cc3)=C2)cc1OC
  u | 29% | 12% | x
28. O=C(CCCN1C(=O)c2ccccc2C1=O)Nc1ccc2c(c1)OCCO2
  -1.4% | -10% | -11% | 0
29. CCOc1ccccc1N1CCN(C(=O)c2cc3cc(OC)ccc3[nH]2)CC1
  0.2% | -2% | -8% | x
30. CC1(C)Cc2c(C#N)c(NCc3ccco3)nc(-c3ccco3)c2CO1
  u | -2% | u | 9

# 3 entries out of the list, arranged by formula weight, lowest first.
# Second line of a record – Rango-impB inh | miR-21 reporter | Rango dissoc inh | GLA inh pH 4.5
20. O=C(CN1CCCC1)Nc1ccccc1C(=O)c1ccccc1
  0.7% | -5% | -14% | 3
18. CCCCCC(=O)Nc1cc(S(=O)(=O)O)cc2cc(S(=O)(=O)O)cc(O)c12
  u | x | u | x
22. Cc1ccc(N(CCC#N)C(=O)COC(=O)C2CCN(S(=O)(=O)c3ccc4c(c3)OCCO4)CC2)cc1
  -4.2% | x | 18% | x

# Following part.
# Second line of a record – Rango-impB inh | miR-21 reporter | Rango dissoc inh | GLA inh pH 4.5
31. CSc1ccc(N2CCN(CCCNC(=O)Nc3ccccc3F)CC2)cc1
  3.9% | -2% | 1% | -3
32. Cc1cccc(-c2nc(CS(=O)CC(=O)N3CCc4ccccc4C3)c(C)o2)c1 (stereo not drawn)
  -3.3% | 3% | -27% | 5
33. CC(C)Sc1nnc(CNC(=O)C23CC4CC(CC(C4)C2)C3)n1Cc1ccccc1
  1.4% | -4% | -5% | -3
34. COc1ccc(N2C(=O)c3ccc(C(=O)OC(C)C)cc3C2=O)cc1
  u | -3% | -9% | 7
35. COc1ccccc1CNC1CCCc2ccccc21 (stereo not drawn)
  -1.4% | 1% | 3% | x
36. Cc1ccc(-c2nnn(CC(=O)N(c3ccccc3F)C(C(=O)NC3CCCC3)c3ccco3)n2)o1 (stereo not drawn)
  u | -6% | 4% | 4
37. C#CCOCCOCCOCCNc1nc(N2CCN(C(=O)[C@H](CCCN=C(N)N)n3cc(C(N)[C@@H](C)CC)nn3)CC2)nc(N2CCN(C(=O)[C@H](CCCCN)n3cc([C@@H](N)CC(N)=O)nn3)CC2)n1 (stereo partly drawn)
  1.3% | x | -30% | x
38. CN(C)C(=O)c1cc(Cl)ccc1Sc1cc(Cl)ccc1Cl
  3.2% | 0% | -1% | 2
39. COc1ccc(C2=NOC(C(=O)N3CCOCC3)C2)cc1OC (stereo not drawn)
  0.5% | -28% | 5% | 2
40. CCNC(=S)Nc1ccc(Cc2nc3ccccc3[nH]2)cc1
  0.3% | -6% | -5% | x
41. C=CCC1NS(=O)(=O)OC(CCCC)C1O (stereo not drawn)
  -2.1% | -2% | 1% | x
42. CCC(=O)Oc1ccc(/C(CC)=C(\CC)c2ccc(OC(=O)CC)cc2)cc1
  u | 0% | -13% | x
43. O=C(c1ccc(Br)c(S(=O)(=O)N2CCCCC2)c1)N1CCCCC1
  -0.7% | 4% | 31% | x
44. Cn1c(=O)c(=O)n(C)c2cc(S(=O)(=O)CCC(=O)Nc3ccc(C(F)(F)F)cc3)ccc21
  -7.2% | -1% | 25% | x
45. CN(Cc1nc2ccccc2c(=O)[nH]1)C(=O)c1cccc(S(=O)(=O)N2CCc3ccccc32)c1
  2.4% | x | 2% | x
46. COc1ccc(S(=O)(=O)N2Cc3ccccc3CC2C(=O)O)cc1OC (stereo not drawn)
  0.4% | -4% | 46% | 4
47. O=c1[nH]c(/C=C/c2ccccn2)nc2ccccc12
  -1.2% | -1% | 26% | x
48. CCn1c(NCc2ccccc2Cl)nc2ccccc21
  1.0% | -55% | 15% | 1
49. C/C(=N/NC(=O)c1ccccn1)c1ccc(O)cc1
  -0.6% | -50% | -7% | -6
50. CCc1nnc2sc(-c3cc(-c4ccccc4)nc4ccccc34)nn12
  2.7% | 1% | -17% | -4
51. Cc1[nH]n(-c2cccc3ccccc23)c(=O)c1/C=N/NC(=O)c1cccc([N+](=O)[O-])c1
  3.9% | 1% | 26% | 1
52. O=C(N/N=C/c1cn(-c2ccccc2)nc1-c1cccnc1)c1ccc(F)cc1
  -0.2% | -4% | 5% | -9
53. CC(NC(=O)Cc1ccc(NC2=NC3CS(=O)(=O)CC3S2)cc1)c1ccccc1 (stereo not drawn)
  1.9% | 1% | u | x
54. CC(C1CC2CCC1C2)n1c(COc2ccccc2F)nnc1SCC(N)=O (stereo not drawn)
  0.0% | 0% | -4% | -12
55. COc1ccc(CN(CC(=O)NC2CCCC2)C(=O)CCC(=O)Nc2nccs2)cc1
  -5.5% | -3% | 33% | x
56. Cn1cccc1C(=O)NCc1ccccn1
  -0.6% | x | -17% | x
57. CCC(C(=O)NCc1ccc(OC)cc1)n1nc(C)n2c(cc3occc32)c1=O (stereo not drawn)
  0.5% | 1% | -7% | 3
58. O=Cc1sc(N2CCOCC2)nc1-c1ccccc1
  x | -1% | x | 1
59. Cn1cnc2c(N3CCCCC3)nccc21
  2.7% | -6% | 2% | 8
60. COC(=O)c1cc(S(=O)(=O)N2CCCC2=O)c(Cl)cc1Cl
  2.8% | 11% | -2% | x

# Next section
# Second line of a record – Rango-impB inh | miR-21 reporter | Rango dissoc inh | GLA inh pH 4.5
61. COc1ccc(NS(=O)(=O)c2cccc(NC(=O)C34CCC(CC3)C4)c2)cc1
  -3.0% | 15% | 3% | -14
62. c1ccc(-n2c(-c3ccco3)nnc2N2CCOCC2)cc1
  -3.9% | -8% | -17% | 1
63. COc1ccc(N(CC(=O)NCC2CCCO2)S(=O)(=O)c2ccc(C)cc2)cc1OC (stereo not drawn)
  -3.0% | -4% | -4% | -7
64. O=C1CN(C(=O)CSc2nnnn2C2CC2)c2ccccc2N1
  1.4% | x | -22% | x
65. CC(=O)c1c(-c2ccc(C)cc2)nc2c3ccccc3ccn12
  -0.3% | -3% | 4% | -3
66. CC(=O)N1c2ccccc2-c2nc3ccccc3n2C1C (stereo not drawn)
  -0.9% | 2% | -2% | x
67. CC(C)=CC(=O)N1CCC(N2CCC(C(=O)N3CCOCC3)CC2)CC1
  -5.5% | -1% | -1% | 8
68. Fc1ccc(/C=N/Nc2nn[nH]n2)cc1
  0.8% | 2% | 11% | 2
69. Cc1[nH]c(C)c(S(=O)(=O)N(Cc2ccccc2)C(C)(C)C)c1C(=O)N1CCCC1
  -3.9% | 3% | -11% | x
70. CSc1ncc(C(=O)Nc2cccc(S(N)(=O)=O)c2)n1-c1ccccc1
  3.1% | 6% | 19% | x
71. O=S(=O)(NN=C1CCCCCC1)c1ccccc1
  0.3% | -3% | 2% | x
72. O=S1(=O)CCOC(CO)CN1Cc1ccc(Cl)c(Cl)c1 (stereo not drawn)
  0.3% | x | 12% | x
73. COCCN(CC(=O)Nc1cccc(C)c1C)C(=O)C1CCN(S(=O)(=O)c2ccccc2)CC1
  u | x | 0% | x
74. CC1Cc2ccccc2N1C(=O)CO/N=C/c1ccccc1OC(F)F (stereo not drawn)
  -2.3% | 0% | -6% | 1
75. CCOC(=O)c1c(N)sc(C(=O)Nc2ccc3c(c2)OCO3)c1C
  -1.4% | 15% | 0% | 0
76. Cc1nn(CC(=O)NCCCN2CC(C)CC(C)C2)c(=O)c2cccn12 (stereo not drawn)
  -2.2% | -1% | 0% | x
77. C/C(NC(=O)c1cccc(F)c1)=C1/C(=O)C[C@@H]2[C@H]1C2(C)C
  0.0% | -39% | -14% | -9
78. CC(=O)NC(c1ccc([N+](=O)[O-])cc1)c1c(O)ccc2ccccc12 (stereo not drawn)
  -1.8% | -6% | -1% | -5
79. C=C/C(C)=C/CC1C(=C)CCC2C(C)(C(=O)O)CCCC12C (stereo not drawn)
  2.5% | -3% | 6% | -11
80. COc1ccc(CNc2nc3ccccc3n2Cc2ccc(Cl)cc2)cc1OC
  -1.0% | 14% | 1% | -4
81. CCOc1ccc(CNC(=O)C(=O)c2cn(CC(=O)N3CCOCC3)c3ccccc23)cc1OC
  3.8% | -17% | 2% | x
82. CCCCNc1nc2ccccc2nc1NS(=O)(=O)c1ccc(F)cc1
  -1.4% | 4% | 6% | x
83. CC(=O)NS(=O)(=O)c1ccc(NC(=O)CSc2ccccc2)cc1
  1.9% | 0% | 2% | 3
84. CCS(=O)(=O)n1nc(-c2ccco2)nc1N
  -2.7% | 1% | 1% | 4
85. O=C(CO/N=C/c1cccc([N+](=O)[O-])c1)NC1CCCCCC1
  0.2% | -10% | 1% | -4

# One compound at a time, as listed above:
# CC(C)=CC(=O)N1CCC(N2CCC(C(=O)N3CCOCC3)CC2)CC1 reads Rango-impB inh: -5.5%; miR-21 reporter: -1%; Rango dissoc inh: -1%; GLA inh pH 4.5: 8
# O=C(CO/N=C/c1cccc([N+](=O)[O-])c1)NC1CCCCCC1 reads Rango-impB inh: 0.2%; miR-21 reporter: -10%; Rango dissoc inh: 1%; GLA inh pH 4.5: -4

# The list is partial; count on the stated rates, not on these rows.
